# NPYLR7 agonist – activates Aedes aegypti NPYLR7 receptor; HEK293T NPYLR7/Galpha15, GCaMP6s calcium fluorescence; activation, % at 10 µM; 270,000 tested, 0.15% active; AID 1259423; in the data active = activation above about 40%;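 note: 0% = vehicle and 100% = reference agonist at the receptor; some compounds past the cut are filed as inactive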
# NPYLR7 agonist max-min – recorded beside NPYLR7 agonist, whose call it bears; activation, %; measured here: Max-Min RFU normalised activation; some inactives read as strong as hits;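 span of the calcium signal over five minutes; 0% = vehicle and 100% = native peptide agonist; compound fluorescence can raise it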
# Numbers without * were called inactive; & = joins results of further samples.
SMILES,NPYLR7 agonist,NPYLR7 agonist max-min
CN(c1ccccc1)S(=O)(=O)c1cccc(NC(=O)CCn2c(=O)oc3ccccc32)c1,9,10
OC(c1nc2ccccc2o1)C(F)(F)F (configuration not stated),4,1
CCOc1ccc(Nc2sc(C(=O)c3ccc(Cl)cc3)c(N)c2S(=O)(=O)CC)cc1,9,0
C#CCn1c(=NC(=O)CSCC(=O)Nc2nccs2)sc2ccccc21,9,4
O=C(O)c1cc(Cl)c(O)c(S(=O)(=O)Cl)c1,0,-4
CC1COC(c2ccccc2)(c2ccccc2)C1 (configuration not stated),3,2
O=C(O)c1ccc2c(c1)ncn2Cc1cccnc1,-2,5
COc1nn(C)cc1C(=O)Nc1nnc(-c2cc(C)nn2C)o1,5,5
COc1cc(Cn2nc(-c3ccco3)c3sc(N4CCCC4)nc3c2=O)cc(OC)c1,-2,-5
CC(C)(C(=O)N1CCC1(C)C(=O)Nc1nccs1)c1ccccc1 (configuration not stated),-4,-5
Cc1onc(-c2ccccc2Cl)c1C(=O)Nc1sc(C)c(C)c1C#N,-5,-5
S=c1[nH]c(CN2CCOCC2)nc2sc3c(c12)CCCC3,3,10
CCn1nnc2c(NC3CCCCC3)ncnc21,4,5
CCCNC(=O)C1CCCN1c1ncnc2sc(-c3ccccc3)cc12 (configuration not stated),1,-1
O=C1CCCC2=C1C(c1ccsc1)CC(=O)N2c1ccccc1C(F)(F)F (configuration not stated),0,-8
Cc1ccccc1C(C)NC(=O)CN1CCN(c2nccs2)CC1 (configuration not stated),3,3
CCOC(=O)C(C)Sc1nnc(CNC(=O)C23CC4CC(CC(C4)C2)C3)n1CCc1ccccc1 (configuration not stated),-2,-4
CCOC(=O)C1CCCN(C(=O)CC(c2ccc(F)cc2)c2cn(CC)c3ccccc23)C1 (configuration not stated),-4,-6
O=c1ccc(-c2ccncc2)nn1CCNS(=O)(=O)c1cccs1,11,2
Cc1cc(C)n(-c2cc(NCCNC(=O)CCCc3ccccc3)ncn2)n1,-10,-14
CN1CCN2C[C@@H](NC(=O)c3ccc(N4CC(=O)NC4=O)cc3)C[C@H]2C1,-3,-7
CN1C[C@@H](NC(=O)c2cccs2)C[C@H]1C(=O)NCCc1ccccc1Cl,21,11
CCCCOc1ccc(S(=O)(=O)NC(=O)C2(C)CCN2C(=O)CC2CCCCC2)cc1 (configuration not stated),11,9
Cc1cc(C)n(CCCNC(=O)c2ccc3oc(-c4cccc(F)c4)nc3c2)n1,-2,-7
COCCOC(=O)Nc1cccc(NC(=O)C2CCOCC2)c1,1,1
CCOC(=O)c1nnn(-c2ccccc2OC)c1C(=O)OCC,8,11
CCC(CC)(NCc1cnc(N2CCCC2)nc1)c1ccc(Cl)cc1,-24,-22
CN1CCN(C(=O)c2c3c(nc4ccccc24)CCN(C(=O)CCc2ccc4c(c2)OCO4)C3)CC1,0,8
C/C=C/CC(=O)NC1CCN(Cc2cccc(O)c2)CC1,-5,-9
Clc1cccc(N2CCN(C3CCCN(Cc4ccc5nsnc5c4)C3)CC2)c1 (configuration not stated),3,1
Cc1ccc(C)c(C2c3cccn3CCCN2Cc2ccccc2Cl)c1 (configuration not stated),13,15
Cc1noc(-c2cccc(C(F)(F)F)c2)c1C(=O)NCc1ccncc1,5,8
CC1CCN(Cc2nnnn2CC(=O)NCCc2cccc(F)c2)CC1,10,4
Cc1cccc(NC(=O)CC(NCCCOC(C)C)C(=O)O)c1 (configuration not stated),-3,-4
O=C(NC(Cc1ccccc1)C(=O)NC1=NCCS1)OCc1ccccc1 (configuration not stated),-4,-6
Cc1ccn2c(=O)nc(SCc3ccccc3F)nc2c1,1,1
COCCN(CC(=O)N(CCc1ccc(OC)c(OC)c1)Cc1ccc(C)o1)C(=O)c1cccs1,-4,-2
COc1ccccc1OCCCCOc1ccccc1Cl,-8,1
CC(Sc1ncccc1Cl)C(=O)Nc1sccc1C#N (configuration not stated),5,3
O=c1c2nc(N3CCCCC3)sc2c(-c2cccs2)nn1CCc1ccccc1,-1,-6

# Reprinted at random: two compounds from above
SMILES,NPYLR7 agonist,NPYLR7 agonist max-min
O=C(NC(Cc1ccccc1)C(=O)NC1=NCCS1)OCc1ccccc1 (configuration not stated),-4,-6
COc1ccccc1OCCCCOc1ccccc1Cl,-8,1

# Later entries.
SMILES,NPYLR7 agonist,NPYLR7 agonist max-min
CN(C)S(=O)(=O)CC12CCC(CC1=O)C2(C)C (configuration not stated),0,-1
O=C(NOCc1ccccc1)c1nn(CCOc2ccccc2)c2ccccc12,21,22
O=P1(Nc2ccc3c(c2)OCCO3)C=C(c2ccccc2)OC(c2ccccc2)=C1,16,12
COc1ccc(NC(C)=O)cc1NC(=O)C1(c2ccc(Br)cc2)CCCC1,1,0
CCOC(=O)CNC(=O)CSc1ncnc2c1nnn2Cc1ccccc1,8,28
CCOC(=O)c1c(NC(=O)c2ccc3nonc3c2)c(-c2ccc3c(c2)OCO3)cn1C,3,2
Cc1ccc2cc(CCNC(=O)Cc3cccc4ccccc34)c(=O)[nH]c2c1C,5,-1
Cn1cnc2cc(-c3nc(C4(c5ccc(F)cc5)CCOC4)no3)cnc21 (configuration not stated),1,-3
Cc1c(Cl)c(C(=O)N2CCCC3(CC2)CN(C)C(=O)O3)nn1C (configuration not stated),-5,-5
Cc1c(C(=O)Nc2nccs2)sc2nc(-c3ccccc3)cn12,5,2
COc1nc(OCC#N)nc(N2CCCCC2)n1,1,-2
CCc1nc(-c2ccccc2)nc(N2CCN(C(=O)C3CC3)CC2)c1Cc1cccc(Cl)c1,19,10
NC(=O)CSc1ncc(CO)n1Cc1ccc(Cl)cc1,3,0
CC(C)c1cc(=O)n(CC(=O)NCCC(c2ccccc2)c2ccccc2)cn1,9,2
CCOC(=O)c1c(C)[nH]c(C(=O)COC(=O)C2=NNC(=O)CC2)c1C,2,2
O=C(Oc1coc(CSc2ncccn2)cc1=O)c1ccc2ccccc2c1,-10,0
COCCCNc1oc(-c2cccc(C)c2)nc1S(=O)(=O)c1ccc(F)cc1,5,3
Cc1cccnc1CN1CCN(Cc2sccc2C)CC1,-3,-5
CCOc1ncccc1C(=O)Nc1nc(-c2ccc(C)o2)cs1,1,0
O=C(CCSCc1cccc(F)c1F)NC(=O)NC1CCCC1,14,14
O=C(Nc1ccc2c(c1)OCCO2)c1ccc(F)cc1Cl,10,3
Cc1cc(O)c(CN2CCCCC2)c2c1C(=O)/C(=C/c1ccncc1)O2,15,12
Cc1ccc2cc(CCNC(=O)c3ccc(C(F)(F)F)cc3)c(=O)[nH]c2c1,1,14
CCc1n[nH]c(=O)n1Cn1c(CC)n[nH]c1=O,-2,-5
COc1cc(CNC2C3CC4CC(C3)CC2C4)ccc1OCC(N)=O (configuration not stated),8,8
COCc1c(Br)c(C)nc(OCC(=O)N/N=C\c2cc(I)c(Oc3ccc([N+](=O)[O-])cc3[N+](=O)[O-])c(OC)c2)c1C#N,7,16
CC(=O)c1cc(CN2CCC(n3nccc3NC(=O)Cc3ccccc3)CC2)cs1,6&0,3&-4
CC(C)(CNC(=O)c1cc2cccc(F)c2o1)C1CCCCO1 (configuration not stated),-4,-5
CC(C)(C)c1cnnn1-c1ccc(N)cc1,4,3
CCOC(=O)c1c(Nc2ncnc3sc(C)c(C)c23)sc(C)c1C,-3,-6
CC(C)=CC(=O)N1CCN(CC(OCc2c(F)cccc2F)c2ccc(Cl)cc2)CC1 (configuration not stated),-3,3
Cn1ccnc1CN(Cc1cc2ccccc2o1)C1CC1,-4,-4
CC(C)c1cc(=O)n(CC(=O)N2CCc3ccccc32)cn1,3,-3
CC(c1ccc(-c2ccc3sc(N)nc3c2)cc1)N1CCOCC1 (configuration not stated),0,-1
CCC(C(=O)NCc1cccc(-c2ncc(-c3ccc(F)cc3)[nH]2)c1)c1ccccc1 (configuration not stated),12,17
Cc1ccc(CNC(=O)c2ccc(Br)o2)cc1F,3,3
CC12CC(NC(=O)N1c1cc(F)ccc1F)c1cc(Br)ccc1O2 (configuration not stated),-2,5
O=c1c2cnc(N3CCOCC3)nc2ccn1-c1ccc(Br)cc1,0,-1
O=C(NC(c1ccc2ccccc2n1)c1cccs1)C1CCN(CCCN2C(=O)C3CCCCC3C2=O)CC1 (configuration not stated),1,4
O=C(O)c1coc(CN(Cc2ccc3c(c2)OCO3)C2CC2)n1,8,8
CN1N=C(C(=O)Nc2ccc3c4c(cccc24)CC3)CCC1=O,0,0
CCCN(C(=O)C=C1CCC(C)CC1)C1CCS(=O)(=O)C1 (configuration not stated),5,4
OC(CC1c2ccccc2-c2cncn21)C1CCCCC1 (configuration not stated),7,0
COC(=O)C(=O)N1CCC(c2nc(-c3ccc4c(c3)OCO4)no2)CC1,-4,-8
CC1(Cc2ccc(F)c(Cl)c2)C(=O)Nc2c(Cl)ccc(Cl)c21 (configuration not stated),3,-1
CC1C[N+](=C2C=C(N3CCOCC3)CC(C)(C)C2)CC(C)O1 (configuration not stated),-10,-18
Cc1ccc(C)c(S(=O)(=O)NC(C)C(=O)Nc2ccc(-c3nc4ccccc4s3)cc2)c1 (configuration not stated),-1,-6
COc1ccc(C(=O)Nc2ccc(-n3nc(OC(C)C)nc3-c3cccc(F)c3)cc2)cc1,-2,3
COc1cc(NC(=O)CCC2CCCN(C(=O)Cn3cccn3)C2)cc(OC)c1 (configuration not stated),3,-1
CN(Cc1n[nH]c2c1CCC2)C(=O)c1cc(COc2cccc(F)c2)[nH]n1,6,19
CC(C)(C)CC(=O)Nc1nc2ccccc2s1,5,5
OC1(Cn2ccnc2)CCN(c2nccc(CCC(F)(F)F)n2)CC1,5,3
CCC(C)N(Cc1ccc(OS(=O)(=O)CC)cc1)C(=O)Nc1ccc(F)cc1F (configuration not stated),5,7
COCCCNC(=O)C(NC(=O)c1cccs1)C1CCN(C(=O)NC(C)C)CC1 (configuration not stated),-1,6
COc1ccc(-c2ccnc(-n3ncc(C(=O)N4CCCCCC4)c3C)n2)cc1F,28,17
COc1ccc(OCCSC2=NC3CCCCC3N2)cc1 (configuration not stated),-2,-4
COc1cccc(C2=N/C(=C\C(C)=C\c3ccccc3)C(=O)O2)c1,-1,-7
Cc1ccc(Cl)cc1-n1c(SCc2ccc(F)cc2)nnc1C(Cc1ccccc1)NC(=O)Nc1ccc(F)cc1F (configuration not stated),-8,-4
Cn1c2c(c3ccccc31)C[C@H]1C[C@@H]2[C@@H](Oc2ccccn2)CN1C(=O)Nc1ccccc1,6,17
COc1nc2c([nH]1)C(c1ccccc1C(C)(C)C)C(C#N)C(=N)O2 (configuration not stated),-12,-14

# (more compounds)
SMILES,NPYLR7 agonist,NPYLR7 agonist max-min
c1ccc(C2=Nn3c(nnc3-c3ccncc3)SC2)cc1,16,10
CC(Sc1nnc(-c2ccco2)n1C)C(=O)c1ccc(Cl)cc1 (configuration not stated),27,26
CCCCn1c(=O)[nH]c(=O)c2c1nc(CNCCC)n2CCC,0,-4
CCN1CCN(C(=O)C(C)Sc2nnc3n(-c4ccc(C)cc4C)c(=O)c4ccccc4n23)CC1 (configuration not stated),9,13
CCCN(Cc1cc(OC)cc(OC)c1)Cc1ccc(C(O)(C=C(C)C)C=C(C)C)o1,0,0
Cc1ccc2c(c1)N(C(=O)CSc1ncnc3nc(N4CCc5ccccc5C4)sc13)CCO2,-2,-3
CCN(CC)CC(O)COc1cc(C)c(Cl)cc1C(C)C (configuration not stated),1,0
CC(=O)Nc1ccc(CN(C)c2c(C)nc3ccc(C(=O)NC4CCN(Cc5ccccc5)CC4)cn23)cc1,12,2

# Entries shown so far that contain an aryl methoxy group, in the order listed:
SMILES,NPYLR7 agonist,NPYLR7 agonist max-min
COc1nn(C)cc1C(=O)Nc1nnc(-c2cc(C)nn2C)o1,5,5
COc1cc(Cn2nc(-c3ccco3)c3sc(N4CCCC4)nc3c2=O)cc(OC)c1,-2,-5
CCOC(=O)c1nnn(-c2ccccc2OC)c1C(=O)OCC,8,11
COCCN(CC(=O)N(CCc1ccc(OC)c(OC)c1)Cc1ccc(C)o1)C(=O)c1cccs1,-4,-2
COc1ccccc1OCCCCOc1ccccc1Cl,-8,1
COc1ccc(NC(C)=O)cc1NC(=O)C1(c2ccc(Br)cc2)CCCC1,1,0
COc1nc(OCC#N)nc(N2CCCCC2)n1,1,-2
COc1cc(CNC2C3CC4CC(C3)CC2C4)ccc1OCC(N)=O (configuration not stated),8,8
COCc1c(Br)c(C)nc(OCC(=O)N/N=C\c2cc(I)c(Oc3ccc([N+](=O)[O-])cc3[N+](=O)[O-])c(OC)c2)c1C#N,7,16
COc1ccc(C(=O)Nc2ccc(-n3nc(OC(C)C)nc3-c3cccc(F)c3)cc2)cc1,-2,3
COc1cc(NC(=O)CCC2CCCN(C(=O)Cn3cccn3)C2)cc(OC)c1 (configuration not stated),3,-1
COc1ccc(-c2ccnc(-n3ncc(C(=O)N4CCCCCC4)c3C)n2)cc1F,28,17
COc1ccc(OCCSC2=NC3CCCCC3N2)cc1 (configuration not stated),-2,-4
COc1cccc(C2=N/C(=C\C(C)=C\c3ccccc3)C(=O)O2)c1,-1,-7
COc1nc2c([nH]1)C(c1ccccc1C(C)(C)C)C(C#N)C(=N)O2 (configuration not stated),-12,-14
CCCN(Cc1cc(OC)cc(OC)c1)Cc1ccc(C(O)(C=C(C)C)C=C(C)C)o1,0,0

# Assay outcomes: PubChem BioAssay, Fisher Drug Discovery Resource Center

# The list is partial; count on the stated rates, not on these rows.
